# Compound activity from PubChem BioAssay.
# KCNQ2 enhance: potentiators of rat KCNQ2 potassium channel. hit rate 0.54% among 310,000. B-score at 10 µM. CHO-K1 KCNQ2, FluxOR thallium flux fluorescence; hits give high values;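 active means fluorescence ratio B-score at least 3 SD of library B-scores, with initial fluorescence B-score within 3 SD, cut at about 5.3 in these data; same plate scores as AID 2156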;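 further: B-score of peak minus minimum over baseline fluorescence ratio after K+ and Tl+ stimulus; positive B-score means potentiation of KCNQ2 with more thallium influx and brighter signal; only the inactives scoring about 0 or higher are listed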
# Target sequence (O88943 whole entry, looked up): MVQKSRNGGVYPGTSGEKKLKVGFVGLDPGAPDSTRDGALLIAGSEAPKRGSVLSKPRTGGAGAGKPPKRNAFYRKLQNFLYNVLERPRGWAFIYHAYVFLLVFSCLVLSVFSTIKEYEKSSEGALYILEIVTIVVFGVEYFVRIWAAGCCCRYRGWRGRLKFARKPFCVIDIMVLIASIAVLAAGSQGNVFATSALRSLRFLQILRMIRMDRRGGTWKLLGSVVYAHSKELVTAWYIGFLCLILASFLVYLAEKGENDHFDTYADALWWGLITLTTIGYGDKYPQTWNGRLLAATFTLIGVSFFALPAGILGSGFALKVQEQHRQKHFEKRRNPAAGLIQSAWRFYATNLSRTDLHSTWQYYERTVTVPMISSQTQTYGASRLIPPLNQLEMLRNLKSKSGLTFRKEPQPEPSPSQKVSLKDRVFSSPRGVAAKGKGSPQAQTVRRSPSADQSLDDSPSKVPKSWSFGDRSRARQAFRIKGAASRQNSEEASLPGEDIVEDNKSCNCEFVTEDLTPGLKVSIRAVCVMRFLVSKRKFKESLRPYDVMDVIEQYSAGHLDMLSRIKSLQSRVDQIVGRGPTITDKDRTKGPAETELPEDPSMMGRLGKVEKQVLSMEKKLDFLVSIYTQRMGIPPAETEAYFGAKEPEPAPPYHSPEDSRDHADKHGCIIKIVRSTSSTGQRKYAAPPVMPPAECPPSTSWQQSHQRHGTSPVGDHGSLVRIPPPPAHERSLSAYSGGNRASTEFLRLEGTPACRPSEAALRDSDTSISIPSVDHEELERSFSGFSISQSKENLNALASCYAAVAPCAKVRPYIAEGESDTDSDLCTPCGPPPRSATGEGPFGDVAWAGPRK
# KCNQ2 enhance baseline: recorded beside KCNQ2 enhance, whose call it bears; B-score; compound at 10 µM; measured here: initial fluorescence intensity artifact check;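 brightness before thallium and not channel activity; 0 = typical well and far values either way flag optical interference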
# Starred values were filed as active, the others as inactive; / = not tested or not shown. A portion of the library; the hit share may differ from the screen's.
KCNQ2 enhance	KCNQ2 enhance baseline	mol
0.06	-0.77	O=c1cc(C(F)(F)C(F)F)oc2ccccc12
0.69	-0.04	C[C@@]12C(=O)N(CC3CC3)CC(=O)N1[C@H](C1CC1)[C@@H]1C(=O)N(c3ccccc3)C(=O)[C@@H]12
1.48	-0.27	COc1cc(C(=O)Nc2cc(C)ccn2)ccc1OCC(=O)N1CCOCC1
0.05	0.36	O=C1CC(c2ccccc2)CC(=O)C1=CN1CCCC1 (configuration not stated)
0.98	-0.31	CNC(=O)/C(C#N)=C\c1ccc(CNS(=O)(=O)c2ccc(Cl)cc2)o1
0.51	-0.04	O=Cc1c(NCCN2CCCC2)c2ccccc2[nH]c1=O
0.05	0.86	COc1cccc(N2CC(C(=O)Nc3nnc(SCC(=O)c4ccccc4)s3)CC2=O)c1 (configuration not stated)
0.1	1.01	CN1CCN(C(=O)C2CCCN(S(=O)(=O)c3ccc(Br)cc3)C2)CC1 (configuration not stated)
0.79	-0.55	Cc1ccc(CSCC(=O)N/N=C/c2cccc(OC3CSC3)c2)cc1
0.47	-0.02	CC(=O)C(C(C)=O)C(NC(=O)c1cccnc1)(C(F)(F)F)C(F)(F)F
0.69	-0.88	c1ccc2c(c1)Cc1cc(CN3CCOCC3)ccc1-2
0.57	1.49	CC(=O)Nc1ccc(NC(=O)C(C)OC(=O)/C=C/c2ccc3c(c2)OCO3)cc1 (configuration not stated)
0.34	-0.76	Cc1cccc(NC(=O)CN(C)S(=O)(=O)c2ccc(-c3ccc(=O)[nH]n3)s2)c1C
1.41	-0.01	Cc1cc(C)c2c3c(sc2n1)C(=O)N(Cc1ccccc1)CC(=O)N3
1.9	0.28	C=C1CC(C(=O)N/N=C/c2ccccc2)C1
0.34	1.39	C=CCn1c(=O)c2ccccc2n2c(SCc3nc(N)nc(Nc4ccccc4C)n3)nnc12
0.04	-1.79	Cc1cccc(C(=O)Nc2ccccc2-c2nnn(CC(=O)Nc3ccc4c(c3)OCCO4)n2)c1
1.06	0.21	COc1ccc(OC)c(S(=O)(=O)N2CCN(C(=O)CCc3ccccc3)CC2)c1
0.84	-1.16	CN1CCN(S(=O)(=O)c2cccc(C(=O)Oc3ccc(C(C)(C)C)cc3)c2)CC1
1.04	-1.36	CC(O)CNc1nc2c(c(=O)n(C)c(=O)n2C)n1Cc1cccc(Br)c1 (configuration not stated)

# In the list so far, these have fluorine.
KCNQ2 enhance	KCNQ2 enhance baseline	mol
0.06	-0.77	O=c1cc(C(F)(F)C(F)F)oc2ccccc12
0.47	-0.02	CC(=O)C(C(C)=O)C(NC(=O)c1cccnc1)(C(F)(F)F)C(F)(F)F

# The listing picks up; the two compounds before the break are reprinted first.
KCNQ2 enhance	KCNQ2 enhance baseline	mol
0.84	-1.16	CN1CCN(S(=O)(=O)c2cccc(C(=O)Oc3ccc(C(C)(C)C)cc3)c2)CC1
1.04	-1.36	CC(O)CNc1nc2c(c(=O)n(C)c(=O)n2C)n1Cc1cccc(Br)c1 (configuration not stated)
0.03	0.1	Cc1cccc(OCC(=O)Nc2ccc3c(C)cc(=O)oc3c2)c1
0.15	-0.73	CCS(=O)(=O)N1CCC2(CC1)OCCN2S(=O)(=O)c1ccc(OC)cc1
0.17	-0.98	Cc1ccc(S(=O)(=O)N2CCCN(S(=O)(=O)c3ccc(C)cc3)CC2)cc1
0.06	-0.5	CCOC(=O)N1CCN(S(=O)(=O)c2c(C)[nH]c(=O)[nH]c2=O)CC1
0.14	-1.66	CC1CCCCN1S(=O)(=O)c1ccc(C(=O)Nc2nnc(-c3ccncc3)o2)cc1 (configuration not stated)
0.08	-1.06	O=C(NCc1ccco1)c1ccc(COCC(F)(F)F)cc1
0.04	-0.65	Fc1ccc(NC(=S)Nc2cc(-c3ccccc3)[nH]n2)cc1Cl
0.7	2.7	CCOC(=O)N1CCC(NC(=O)C2CCCN2C(=O)OCc2ccccc2)CC1 (configuration not stated)
1.46	0.12	CC1=C(C(=O)OCC2CCCO2)C(c2ccncc2)C2=C(CCCC2=O)N1 (configuration not stated)
0.78	-1.22	O=C(CSc1nc2ccccc2[nH]1)N1CCN(c2ccccc2)CC1
0.04	1.57	CC(=O)Nc1ccc(OCc2ccc(S(=O)(=O)Cc3ccccc3)cc2)cc1
0.53	0.01	CC(O)CNc1nc2ccccc2n1CC(=O)N1CCN(Cc2ccccc2)CC1 (configuration not stated)
1.03	-0.33	Cc1csc2c(N(C)CCO)ncnc12
2.23	0.87	O=[N+]([O-])CC(c1ccc(F)cc1)c1c[nH]c2ccccc12 (configuration not stated)
0.83	1.63	CN(C)c1ccc(C2Nc3ccccc3C(=O)N2CCN2CCNC2=O)cc1 (configuration not stated)
0.16	-1.1	Cc1ccc(CNC(=O)COC(=O)[C@@H]2CC(O)CN2S(=O)(=O)c2ccc3c(c2)OCCO3)cc1 (some centres not stated)
1.12	1.55	COc1ccc2nc(NC(=O)c3cccc(-c4cc5ccccc5oc4=O)c3)sc2c1
2.03	0.03	COc1ccccc1CNS(=O)(=O)c1c(C)nc2sccn2c1=O
1.31	-0.32	COc1cccc(C(=O)CSc2nnc(-c3ccco3)n2CC2CCCO2)c1 (configuration not stated)
2.19	1.65	COc1ccc(CCC(C)NCc2ccc(C(F)(F)F)cc2)cc1 (configuration not stated)

# Five entries from above, with bars between the fields.
SMILES | KCNQ2 enhance | KCNQ2 enhance baseline
Cc1cccc(C(=O)Nc2ccccc2-c2nnn(CC(=O)Nc3ccc4c(c3)OCCO4)n2)c1 | 0.04 | -1.79
COc1ccccc1CNS(=O)(=O)c1c(C)nc2sccn2c1=O | 2.03 | 0.03
C=CCn1c(=O)c2ccccc2n2c(SCc3nc(N)nc(Nc4ccccc4C)n3)nnc12 | 0.34 | 1.39
CC(=O)Nc1ccc(OCc2ccc(S(=O)(=O)Cc3ccccc3)cc2)cc1 | 0.04 | 1.57
COc1ccc2nc(NC(=O)c3cccc(-c4cc5ccccc5oc4=O)c3)sc2c1 | 1.12 | 1.55

# Back to the main list, repeating the two entries before the break.
KCNQ2 enhance	KCNQ2 enhance baseline	mol
1.31	-0.32	COc1cccc(C(=O)CSc2nnc(-c3ccco3)n2CC2CCCO2)c1 (configuration not stated)
2.19	1.65	COc1ccc(CCC(C)NCc2ccc(C(F)(F)F)cc2)cc1 (configuration not stated)
0.2	-0.52	CCCNc1c(NC(=O)COc2ccc(Cl)cc2)c(=O)oc2ccccc12
0.17	0.71	COc1ccccc1CNC(=O)c1ccc(NC2=NC3CS(=O)(=O)CC3S2)cc1 (configuration not stated)
1.81	0.93	CC(C)c1nnc(NC(=O)COc2ccc3c(c2)OCO3)s1
0.86	-0.2	CCOC(=O)N1CCN(Cc2ccc(OCC(O)CN3CCCCC3)cc2)CC1 (configuration not stated)
0.48	0.22	CCOC(=O)N1CCN(C(=O)Cn2nc(C)n3nc(-c4ccc(OC)cc4)cc3c2=O)CC1
0.7	0.61	O=C(c1ccc(Cl)c([N+](=O)[O-])c1)N(Cc1ccco1)C1CCS(=O)(=O)C1 (configuration not stated)
0.67	-0.81	CCOC(CNC(=O)c1ccc2nc(N3CCC(C)CC3)sc2c1)OCC
1.23	-0.14	O=C(O)c1ccccc1-c1ccccc1C(=O)Nc1ccc(-c2nc3cc(Cl)ccc3o2)cc1
1.39	-0.64	CSCC[C@H](N)C(=O)N1CCC(C(=O)N[C@H](C)C(=O)Nc2ccc(C(C)C)cc2)CC1
1.76	-0.17	CCOCCCNC(=O)Cc1ccc(F)cc1
2.3	-1.14	COc1ccc(C(=O)c2c[nH]c(C(=O)NCC3CCCO3)c2)cc1 (configuration not stated)
0.6	-0.37	Cc1cc(C2=NNC(=NCCc3ccccc3)SC2)c(C)n1-c1c(C)n(C)n(-c2ccccc2)c1=O
0.13	-0.31	CCOC(=O)C(=O)N=Nc1c(O)n(C)c2ccccc12
0.8	0.21	COc1cc(CCCN2C(N)=NC[C@@H]2Cc2ccc(O)cc2)cc(OC)c1OC
0.06	0.15	CSc1ccccc1C(=O)Nc1cccc(C(C)O)c1 (configuration not stated)
0.05	/	CC(=O)/C=C(/C)NC(Cc1c[nH]c2ccccc12)C(=O)O (configuration not stated)
1.71	0.32	CCn1cnc2sc(C(=O)N3CCN(c4ccc(OC)cc4)CC3)c(C)c2c1=O
0.82	-2.22	Cn1nc(C(=O)NCc2ccccn2)c2ccccc2c1=O
1.77	-2.4	O=[N+]([O-])c1cccc(Cl)c1N1CCOCC1
2.3	0.04	Nc1nnnn1N=C1CCCCC1
0.64	-0.23	CC(=O)N(C)c1ccc(NC(=O)c2ccc([N+](=O)[O-])cc2Cl)cc1
0.51	0.27	COc1ccc(S(=O)(=O)c2c(O)c3ccc(C(=O)Nc4ccccc4)cc3[nH]c2=O)cc1
0.12	-0.02	CC(=O)C12CCCCC1CC1C3CC(C)C4(O)CC(=O)CCC4(C)C3CCC12C (configuration not stated)
2.6	-0.53	C=CCN(CC=C)C(=O)Cc1ccc(F)cc1
0.27	-1.04	CCOC(=O)[C@@H]1[C@H]2COc3cc(OC)ccc3[C@@H]2N2C(=O)N(c3ccc(Br)cc3)C(=O)[C@@]12C
1.26	1.73	Cc1ccc(CCNC(=O)C2CCCN(C(=O)N(C)C)C2)cc1 (configuration not stated)
0.55	1.39	CS(=O)(=O)N1CCN(c2ccccc2NC(=O)c2ccc(Br)o2)CC1
0.83	-0.11	Oc1ccc2ccccc2c1CN1CCN(c2ccccc2)CC1
1.24	0.37	CC(=O)n1nc(-c2ccccc2)nc1NCc1ccc(N(C)C)cc1
1.66	0.2	CCCNS(=O)(=O)c1ccc(NC(=O)Cc2cccs2)cc1
0.21	-1.02	O=C(CSc1nnc(-c2cccc(S(=O)(=O)N3CCCC3)c2)n1-c1ccccc1)Nc1ccc(C(=O)O)cc1
0.84	-1.25	Cc1nn(-c2ccccc2)c(Cl)c1C(=O)Nc1nnc(C2CCCCC2)s1
0.75	0.03	Cc1onc(-c2c(Cl)cccc2Cl)c1C(=O)N1CCOCC1
0.85	1.35	O=C(Nc1ccccc1)C1=C[C@H](c2ccc(C(F)(F)F)cc2)C[C@H](OCc2ccc(CO)cc2)O1
0.15	0.43	COc1ccc(OC)c(NC(=O)C(=O)NNC(=O)c2cccs2)c1
1.51	-1.44	CC(N=C1NS(=O)(=O)c2ccccc21)C(=O)N1CCc2ccccc2C1 (configuration not stated)
0.06	0.02	O=C(CCC(=O)c1ccc(F)cc1)Nc1ccccc1Cl
0.06	-1.39	COC(=O)c1cccc(S(=O)(=O)N2CCC(NC(=O)NC34CC5CC(CC(C5)C3)C4)CC2)c1
0.28	0.24	N#Cc1cc2c(nc1SCc1ccccc1)CCC2
0.62	-0.81	CC(=O)OC(CC(=O)O)C[N+](C)(C)C (configuration not stated)
0.16	2.4	CCOc1ccc(Cl)cc1S(=O)(=O)NCc1ccccn1
0.93	2.47	Cc1ccc(CNC(=O)CN(C)S(=O)(=O)c2ccc(F)cc2)cc1
0.64	-0.42	Cc1ccc(S(=O)(=O)/N=C(/Nc2ccc(F)cc2F)c2ccccc2)cc1
0.53	1.34	Cc1nnc(NC(=O)C2CCN(c3cnccn3)CC2)s1
0.27	0.14	CC(C)(C)c1cc(CCC(=O)NCC2CCCO2)cc(C(C)(C)C)c1O (configuration not stated)
0.5	0.11	COC(=O)NNC(=O)c1ccc(C)c(Br)c1
0.03	-1.46	CCOC(=O)C1CCN(C(=O)CSc2cc(=O)n(C)c3ccccc23)CC1
1.91	-0.92	CC1=C(C(=O)Nc2cccc(C(=O)NCc3ccccc3C)c2)SCCO1
1.25	-0.7	CCOC(=O)N1CCN(S(=O)(=O)c2ccc(Br)s2)CC1
1.33	-0.05	CC(=O)N1CCOc2ccc(S(=O)(=O)Nc3ncccc3C)cc21
2.42	-3.21	O=C(NCCNc1cc(Cl)ccc1[N+](=O)[O-])c1ccco1
0.63	0.21	Cc1c(C(=O)c2cccc([N+](=O)[O-])c2)c2ccccn2c1CCC#N
0.23	2.12	Cc1n[nH]c(=O)c2c(NC(=O)COC(=O)c3cccc(OC(F)F)c3)oc(C)c12
1.63	1.11	O=C(CCCNC(=O)c1ccc(Cl)cc1)Nc1ccccc1F
0.01	-1.05	COc1ccc(C(O)(CCN2CCCCC2)C2CCCCC2)cc1 (configuration not stated)
1.12	-0.44	Cc1ccc(C(=O)OCC(=O)Nc2sc3c(c2C#N)CCC3)cc1
2.38	-1.21	O=C(NC1CC1)c1ccc2snnc2c1
0.11	-0.09	O=C(NNC(=O)c1cccc(-n2cccc2)c1)c1ccc(F)cc1
0.82	-0.25	Cn1c2ccc(F)cc2c2ncn(Cc3ccccn3)c(=O)c21
0.41	0.7	O=C(Cc1ccc(S(=O)(=O)N2CCCC2)s1)NC1CCCCCC1

# (next part)
KCNQ2 enhance	KCNQ2 enhance baseline	mol
0.51	-0.63	Cn1c(CCc2ccccc2)n[nH]c1=S
2.03	-0.17	CCN1C(=O)C(O)(CC(=O)c2ccc(-n3cccc3)cc2)c2ccccc21 (configuration not stated)
0.17	1.21	N#CC(C#N)=Cc1ccc(-c2ccc(S(=O)(=O)N=C(N)N)cc2)o1
0.07	-0.02	CCOC(=O)/C(=N/Nc1ccc(Cl)cc1)Sc1nnnn1-c1ccc(C)cc1
0.01	0.32	Cc1cc2ncc(-c3cccc(Cl)c3)cn2n1
0.4	0	NCCCCCc1nnc(SCc2ccc(Cl)c(Cl)c2)o1
0.77	-1.34	CCOc1ccc2[nH]c(=O)c(C(c3nnnn3C3CCCCC3)N3CCN(CC)CC3)cc2c1 (configuration not stated)
0.25	-0.01	COCCCNC(=O)Cn1cc2c(n1)CCC(C)C2 (configuration not stated)
0.12	2.27	O=C(c1ccccc1)N1CCN(c2ncnc3c2cnn3-c2ccccc2)CC1
0.19	0.02	C=CCNC(=S)N/N=C(\C)c1ccc(OC)cc1
0.73	1.5	CCOc1ccc(NC(=O)CC2CC(C)(C)OC2=O)cc1 (configuration not stated)
0.61	0.2	CC(NC(=O)Nn1cnnc1)(C(F)(F)F)C(F)(F)F
